Lassa entry inh: blocks Lassa virus binding to or entry into cells; hit rate 1.2% among 300,000; Lassa virus pseudotype entry inhibition, cell reporter; control for the full effect not named in the record; Potency, µM (series often up to 37.9 µM), for inactives: at the highest dose activity change, negative = inhibition, hits mostly inhibitors; active means well fitted inhibition curve with a large enough effect; inconclusive means small, poorly fitted or top-dose-only effect, or effect the other way; inactive means flat fitted curve, though single readings scatter; tested in HEK293 cells; note: % is set by controls: 0 for no effect and ±100 for the full control effect; nearly all actives have a fitted effect of over 50% in size; luciferase read-out
Marburg entry inh: Marburg virus entry inhibition; AID 540276; Potency, µM (doses to about 37.8 µM), for the others: at the highest dose activity change, negative = inhibition, most hits filed as inhibitors; hit rate 1.8% among 300,000; Marburg virus pseudotyped entry inhibition, cell reporter; control for the full effect not named in the record; about a third of the inactives were read at about 46 µM; active = well fitted inhibition curve with a large enough effect; inconclusive = small, poorly fitted or top-dose-only effect, or effect the other way; inactive = flat fitted curve, though single readings scatter; tested in HEK293 cells; about a fifth of its hits are not listed in these tables; note: % is set by controls: 0 for no effect and ±100 for the full control effect; luciferase read-out
2A StopGo: lowers the luciferase signal of an FMDV 2A StopGo reporter. Potency, µM (doses to about 57.9 µM), inactives show top-dose signal change, negative = less light. hit rate 1.2% among 410,000. human cells with a luciferase reporter of 2A StopGo recoding; control for the full effect not named in the record. AID 1159524; active = well fitted falling curve with a large enough effect; inconclusive = small, poorly fitted or top-dose-only effect; inactive = no such curve, though single readings can be large or run the other way; tested in HEK293T cells; note: % is set by controls: 0 for no effect and ±100 for the full control effect; nearly all actives have a fitted effect of over 45% in size; luciferase light after 4 h
RE007 growth inh: less growth of the S. pombe RE007 Vpr strain; hit rate 0.21% among 360,000; Potency, µM (series often up to 92.2 µM), inactives show top-dose activity change, negative = less growth; S. pombe RE007 Vpr strain, BacTiter-Glo ATP luminescence, 24 h; control for the full effect not named in the record; AID 651644; active = well fitted falling curve with a large enough effect; inconclusive = small, poorly fitted or top-dose-only effect; inactive = no such curve, though single readings can be large or run the other way;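 note: % is set by controls: 0 for no effect and ±100 for the full control effect; nearly all actives have a fitted effect of over 50% in size; the assay follows cell death caused by Vpr and the record does not say whether a fall means rescue or toxicity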
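Fission yeast strain RE007, carrying one chromosomally integrated HIV-1 vpr copy, was seeded at OD 0.01 in PMG+AL medium with 23 nL pinned compound. After 24 h at 30 °C and 99% humidity, viability was read by BacTiter-Glo luminescence.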
SARS PLP yeast: blocks SARS-CoV papain-like protease in a yeast assay; S. cerevisiae expressing SARS-CoV PLpro, growth rescue; control for the full effect not named in the record; Potency, µM (titrated, usually from 32.9 µM), inactives show top-dose activity, positive = growth rescue; hit rate 0.19% among 330,000; note: 0% is about no effect; nearly all actives have a fitted effect of over 55% in size; growth read by luminescence after 48 h
NS1 inh: influenza NS1 inhibition | S. cerevisiae slowed by influenza A NS1, growth recovery by OD600 | Potency, µM (highest dose often 46.1 µM), for inactives: at the highest dose activity, positive = more growth | hit rate 0.4% among 270,000 | AID 2326; note: actives are rising curves; nearly all actives have a fitted effect of over 50% in size
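Recovery from NS1-induced slow growth read by OD600 in budding yeast switched to galactose assay medium (pH 6.0, -URA) at 1:100 dilution. Compound 23 nl per well; the matching strain lacking NS1 serves as control.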
Cruzain inh noDet: cruzain (T. cruzi) inhibition without detergent; P25779; purified cruzain, Z-FR-AMC fluorescence, no detergent; Potency, µM, inactives show max response, negative = inhibition, actives largely listed as inhibitors; hit rate 2.3% among 200,000; active = well fitted curve in the direction sought with a large enough effect; inconclusive = small, poorly fitted or top-dose-only effect, or another doubt; inactive = no such curve, though single readings can be large; an effect the other way counts as inactive or inconclusive;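 note: plate controls were enzyme without inhibitor for no effect and buffer without enzyme for full effect; nearly all actives have a fitted effect of over 40% in size; top concentration of the series not given in the record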
Target sequence (P25779 123-467 limits assumed): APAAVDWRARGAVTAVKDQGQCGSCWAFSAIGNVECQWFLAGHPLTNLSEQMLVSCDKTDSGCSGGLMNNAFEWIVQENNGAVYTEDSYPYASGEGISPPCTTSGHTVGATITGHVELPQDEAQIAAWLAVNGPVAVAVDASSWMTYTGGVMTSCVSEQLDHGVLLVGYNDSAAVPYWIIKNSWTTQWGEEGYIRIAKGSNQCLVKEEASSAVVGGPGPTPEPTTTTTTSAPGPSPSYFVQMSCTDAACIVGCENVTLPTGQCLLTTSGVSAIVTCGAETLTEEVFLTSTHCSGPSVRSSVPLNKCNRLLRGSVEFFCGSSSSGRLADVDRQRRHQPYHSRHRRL
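Detergent-free condition (0.00005% Triton X-100) in acetate buffer pH 5.5 with DTT. 1.5 nM enzyme and compound were pre-mixed 15 min, then 2 uM Z-FR-AMC substrate added; reaction progress from fluorescence change between first and third reads (60 s).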
Cruzain inh Det: blocks cruzain activity in presence of Triton detergent. P25779. purified cruzain, Z-FR-AMC fluorescence, 0.01% Triton. Potency, µM, inactives show max response, negative = inhibition, usual class: inhibitors. hit rate 0.43% among 200,000. AID 1478; active = well fitted curve in the direction sought with a large enough effect; inconclusive = small, poorly fitted or top-dose-only effect, or another doubt; inactive = no such curve, though single readings can be large; an effect the other way counts as inactive or inconclusive;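 note: plate controls were neutral wells for no effect and buffer without enzyme for full effect; nearly all actives have a fitted effect of over 40% in size; top concentration of the series not given in the record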
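Compounds were screened in titration against cruzain (1.5 nM) with 0.01% Triton X-100 to counter colloidal aggregation. Activity was the AMC fluorescence increase over 60 s after adding 2 uM Z-FR-AMC at pH 5.5.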
Numbers without * were called inactive; u = inconclusive; x = no result given; & = joins results of further samples; [ ] = another dose, or the depositor's remark. Unless noted, calls come from the whole dose curve; as a rule, active means well fitted rising curve with a large enough effect; inconclusive means small, poorly fitted or top-dose-only effect; inactive means no such curve, though single readings can be large or run the other way. Potency is the fitted concentration of half-maximal effect.

SMILES | Lassa entry inh | Marburg entry inh | 2A StopGo | RE007 growth inh | SARS PLP yeast | NS1 inh | Cruzain inh noDet | Cruzain inh Det
Cc1cc(NC(=O)Cn2c(=O)oc3ccc(Cl)cc32)no1 | x | x | -9.6% | -5.0% | u | 5.8% | x | x
S=C(Nc1ccc2nc(-c3ccccn3)c(-c3ccccn3)nc2c1)N1CCCCCC1 | -10.4% | -18.2%[46.1 µM] | -19.9% | -4.7% | -1.4% | -2.0% | x | x
CS(=O)(=O)c1nc(S(=O)(=O)c2ccc(Cl)cc2)c(NCCCn2ccnc2)s1 | x | x | 15.7% | 2.8% | 0.7% | -8.4% | x | x
Cc1c(OCC(=O)NCc2cccnc2)ccc2c3c(c(=O)oc12)CCCC3 | x | x | 7.7% | 10.4% | 0.6% | 0.7% | x | x
Cn1c(=O)c2c(nc(SCc3cccnc3)n2Cc2ccccc2)n(C)c1=O | 17.8% | -17.8% | x | -4.5% | -1.2% | -15.8% | 3.9% | 0.0%
O=C(CSc1nnnn1-c1cccc(Cl)c1)Nc1ccc2c(c1)CCC2 | x | x | x | x | 11.3% | 1.1% | u | 1.8%
CN(C)c1nc(N(C)C)nc(N(C#N)CN2C(=O)c3ccccc3C2=O)n1 | x | -4.9% | x | x | -2.3% | -4.6% | 7.6% | 0.6%
CCOC(=O)c1[nH]cnc1C(=O)Nc1ccccn1 | 1.3% | -8.6% | x | 11.2% | 14.8% | 0.3% | -3.1% | 5.0%
COc1cc(Cl)c(C)cc1NC(=O)c1ccc2c(SCC(=O)O)c3c(nc2c1)CCCC3 | 3.7% | -2.3%&-7.5%[46.1 µM] | -20.9%&-23.6% | -25.2% | -1.0% | x | 12.5% | -2.4%
Cc1cc(C)cc(NC(=O)C(=O)NCC2CCCN2S(=O)(=O)c2cccs2)c1 (configuration not stated) | u | -26.6% | -1.2% | 4.0% | -12.6% | x | x | x
COc1ccccc1NS(=O)(=O)c1cccc(NC(=O)NC2CCCCC2)c1 | u | u | -16.0% | 0.4% | 26.1% | 5.6% | 10.2% | -4.1%
Cc1cc(C(=O)CSc2ccccc2)cc(C)c1O | 25.4%[46.1 µM] | u | 35.8%[activator] | -10.1% | -4.1% | -7.1% | x | x
Cc1cccc(NC(=O)c2c(C)nn(-c3ccccc3)c2Cl)c1 | 13.6% | -15.7%[46.1 µM] | 44.9%[activator] | 7.4% | 11.6% | -9.3% | x | x
COc1ccc(Cl)cc1C(=O)NNC(=O)c1cccc([N+](=O)[O-])c1 | x | x | 8.3% | -5.7% | -0.1% | 2.8% | x | x
O=C(NCc1nnc2c(C(F)(F)F)cc(Cl)cn12)c1cccs1 | x | x | -17.3% | 9.9% | 7.1% | 8.9% | x | x
BrC(=C\c1ccccc1)/C=N/N1CCN(c2ccccn2)CC1 | 0.5% | -5.0% | -23.8% | -12.5% | -29.0% | -16.0% | -12.6% | -4.7%
COc1ccc(-c2cc(C(=O)OCC(=O)N(C)C3CCS(=O)(=O)C3)c3ccccc3n2)cc1OC (configuration not stated) | u | u | -14.8% | 16.3% | -0.2% | x | x | x
CCC1(C)CN(S(=O)(=O)OCC(Cl)(Cl)Cl)C(=O)N1 (configuration not stated) | x | x | -7.4% | -2.9% | 0.6% | 16.2% | x | x
CC(=O)N/N=C/C1=CCC2CC1C2(C)C (configuration not stated) | u | u | -0.3% | -1.9% | -10.9% | x | x | x
O=C(Nc1ccc(F)cc1)C1CC(=O)N(Cc2ccco2)C1 (configuration not stated) | 0.8%[46.1 µM] | 13.9%[46.1 µM] | 0.3% | -4.6% | 1.4% | 24.8% | x | x
COc1ccccc1N1CCN(Cc2cc3c(cc2O)OCO3)CC1 | -13.0%[46.1 µM] | -8.8%[46.1 µM] | -15.1% | -18.2% | 3.4% | 2.8% | x | x
CC(C(=O)Nc1ccccn1)c1ccccc1 (configuration not stated) | x | x | -21.6% | 1.2% | 7.0% | -0.2% | x | x
CCOC(=O)NCc1ccc(S(=O)(=O)Nc2ccc(C)cc2)cc1 | u | -18.4%[46.1 µM] | 26.2% | 21.3% | 16.3% | 1.0% | 3.6% | -2.6%
Cc1nc2sc(-c3ccccc3)cc2c(=O)[nH]1 | u | u | x | -17.4% | -16.6% | -70.7% | -15.4% | 0.4%
CCn1nc(C)c(CNCc2cn[nH]c2-c2cc3ccccc3o2)c1C | -1.0% | 2.3%[46.1 µM] | 4.1% | -15.9% | -2.0% | 2.6% | x | x
CC(=O)c1ccc(NC(=O)C(C)OC(=O)C(C)Oc2cccc(C)c2)cc1 (configuration not stated) | 11.7% | -21.2% | -14.9% | 15.6% | -3.1% | -7.5% | 5.5% | -4.3%
N#C/C(=C/c1ccc(F)cc1)C(N)=S | -3.1% | -1.1%[14.2 µM] | -0.9% | -22.6% | -0.2% | x | x | x
COc1ccc(S(=O)(=O)NCc2cc(-c3ccccc3Cl)no2)cc1 | -2.9%[46.1 µM] | -0.6%[46.1 µM] | -6.5% | 23.5% | -3.0% | x | x | x
O=C(NC(=S)NCc1ccccc1)c1ccccc1F | 3.2% | 11.7% | 45.6%[activator] | -5.0%[3.69 µM] | 17.1% | 4.7% | -12.7% | -2.0%
CSc1cnn(-c2ccccc2)c(=O)c1SC | -1.9% | 28.9% | 13.1% | 5.3% | 0.6% | -49.6% | -5.7% | -0.4%
CCOc1ccc(-n2ccnc2SCC(=O)N2CCCc3ccccc32)cc1 | -22.6% | -4.7% | -26.9% | -0.4% | 16.3% | -40.6% | -9.2% | -5.6%
CC(=O)OC(C)=O | x | x | -24.0% | -8.6% | -2.2% | x | -3.1% | 0.9%
COc1cc(/C=C2/N=C(C3CCCCC3)OC2=O)cc(OC)c1OC | -9.7% | 19.0% | -11.8% | -6.7% | -1.3% | 2.0% | 2.51µM* | 2.51µM*
Cc1ccc(OCC(=O)n2nc(C)cc2C)c(Br)c1 | -3.8% | 2.2% | x | 0.2% | 1.7% | 12.7% | -10.6% | -3.3%
CCC1CN1P(=S)(N1CC1CC)N1CC1CC (configuration not stated) | 23.9% | u | -6.6% | -14.3% | x | x | x | x
O=C(Nc1cccnc1)/C(N=Nc1c(Cl)cccc1Cl)=C(\O)c1ccccc1 | 12.6% | 27.4% | -21.0% | 9.6% | 14.6% | 9.7% | -0.2% | -4.5%
CCc1nnc(NC(=O)Cc2ccc(OC)c(OC)c2)s1 | x | x | -27.2% | 3.8% | 0.1% | 0.6% | x | x
CCn1nc(C)c(/C=N/NC(=O)c2c[nH]c3ccccc23)c1C | u | 0.2% | -0.4% | -20.4% | 2.4% | -1.3% | -12.3% | -3.1%
CC(C)NC(=O)C(=O)NCCCOC(C)C | 7.1% | 12.0% | 4.6% | -2.0% | 1.0% | 9.0% | 5.3% | 1.5%
Cc1ccc(/C(O)=C2/C(=O)C(=O)N(c3ccccn3)C2c2cccc([N+](=O)[O-])c2)cc1 (configuration not stated) | x | x | -20.1% | -1.5% | -1.5% | 12.9% | x | x
CC1CCc2c(sc3nc(SCC(=O)NCc4ccco4)nc(N)c23)C1 (configuration not stated) | u | u | 0.0% | -7.1% | -0.1% | -53.6% | 17.1% | -17.0%
Clc1ccccc1-c1nnc(-c2ccccc2CNc2ccccc2)o1 | 9.6%[46.1 µM] | -1.5%[46.1 µM] | 46.3%[activator] | x | x | x | -10.8% | -1.5%
O=C(NC1CCCCC1)C(c1cc2c(cc1[N+](=O)[O-])OCO2)N1CCCCC1 (configuration not stated) | 13.7% | -20.6% | x | x | 9.5% | -4.6% | -17.8% | -5.8%
Cc1c(C(=O)OCc2ccccc2)[nH]c2c1C(=O)CC(c1ccco1)C2 (configuration not stated) | x | x | -25.5% | -15.2% | -3.2% | -0.3% | -6.4% | -3.6%
Cc1c(NC(=O)c2ccc3c(c2)OCO3)cccc1-c1nc2ccccc2s1 | 9.9% | -0.8% | x | 4.6% | u | -2.3% | -2.3% | 0.2%
O=C(O)CCCC(=O)Nc1ccc(C(=O)N2CCCCC2)cc1 | 9.0% | 11.6% | x | -9.3% | x | 0.8% | 3.1% | 5.3%
C=CCOc1c(/C=N\NC(N)=O)cccc1OC | x | x | -16.6% | -9.3% | -0.6% | 0.4% | x | x
Cn1nnc2cc(C(=O)Nc3ccc(Cl)cc3)ccc21 | x | x | 54.8%[activator] | 6.2% | 4.5% | 1.2% | x | x
Cc1cc(=O)oc2c3c(cc(OCC(=O)NC(C)C)c12)OC(C)(C)CC3 | 16.6%[46.1 µM] | u | -25.7% | -20.9% | 0.4% | 3.7% | x | x
CCc1nc2n[nH]c(N)c2c2c1CSC(C)(C)C2 | 6.0% | -12.6% | -26.7% | 5.4% | -15.5% | 7.1% | -3.4% | -2.4%

Remaining list, next part
SMILES | Lassa entry inh | Marburg entry inh | 2A StopGo | RE007 growth inh | SARS PLP yeast | NS1 inh | Cruzain inh noDet | Cruzain inh Det
CN(Cc1cccnc1)Cc1cn(Cc2ccccc2)nc1-c1ccc2c(c1)OCO2 | 7.5% | -0.9%[46.1 µM] | -3.5% | -8.4% | -0.6% | -0.9% | x | x
CCCCCC(=O)Nc1ccc(-c2csc(C)n2)cc1 | 14.6% | -2.0% | 23.0% | -15.5% | -20.0% | 0.8% | -16.9% | -5.1%
Cc1ccc(-n2nc(CO)c(C(=O)NCc3cccnc3)n2)cc1 | -6.5%[46.1 µM] | u | u | x | x | x | 5.5% | -3.5%
COc1ccc(NC2=CC(=O)CC(c3ccccc3)C2)c(OC)c1 (configuration not stated) | u | u | x | 1.6% | -1.5% | 14.2% | 1.5% | 2.0%
COc1ccc(CCNC(=O)C2CCC(CNS(=O)(=O)c3ccc(C)cc3)CC2)cc1OC (configuration not stated) | 3.6%[46.1 µM] | x | -9.5% | x | x | x | 6.2% | -1.8%
Cc1ccc(C)c(S(=O)(=O)N2CCCOC2CNC(=O)C(=O)NCCc2ccccc2)c1 (configuration not stated) | u | u | -8.0% | -6.1% | 1.4% | 11.7% | x | x
Cc1cc(F)ccc1S(=O)(=O)NCC(c1ccc2c(c1)OCO2)N1CCOCC1 (configuration not stated) | -12.0% | 3.0% | 30.2%[activator] | -10.3% | 2.7% | x | x | x

Source: PubChem
